# Autofluor counter: flagged as autofluorescent in microsphere protease counterscreen; compound autofluorescence counterscreen, microsphere flow cytometry; hits give high values; fluorescence intensity (concentration not given with the values); 360,000 compounds, 3.1% hits; AID 624483;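 active = at least 3 SD above the mean of all compounds, about 16000 in these data; inconclusive = too few beads counted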;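 note: 100 nL of 1 mM stock went into each well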
# Mtb hypoxia rep: Mtb hypoxia fluorescent reporter inhibition. M. tuberculosis hypoxia-regulated fluorescent reporter, fluorescence. 300,000 compounds, 0.1% hits. fluorescence inhibition, % (concentration not given with the values);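 active = 35 to 45% if threefold the growth effect, above 45% if 1.5-fold the growth effect; inactive = the rest, general growth blockers included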;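 note: wells of about 50 µL received 100 nL stock; 0% = vehicle wells and 100% = reference inhibitor wells; whole bacteria with a GFP reporter of the hypoxia response; strong numbers were not always called active; many hits fall short of the cut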
# BJeLR lethal: BJeLR cell viability loss | AID 1554 | 300,000 compounds, 0.17% hits | BJeLR (HRASV12) viability, CellTiter-Glo ATP luminescence, 48 h; reference of the scale not given here | inhibition, % (concentration not given with the values);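 active = replicate mean above 50%; inconclusive = above 50% but judged a plate artefact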;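 note: 50 nL library stock added to about 25 µL; numbers are from one replicate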
# PrP UTR inh: inhibition of PrP 5' UTR reporter expression; cell-based PrP 5' UTR mRNA reporter, plate reader; inhibition, % (no concentration beside the values); 340,000 compounds, 0.35% hits; AID 488862;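 active = every replicate at 50% or more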;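 note: 0 = median of the neutral control wells; tested in H4 reporter cells; numbers are from one replicate; inactives centre near -14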
# ugtP null kill: growth inhibition of S. aureus ugtP deletion strain; 330,000 compounds, 0.54% hits; AID 1259309; S. aureus RN4220 ugtP deletion, OD600 growth, 16 h; some inactives read as strong as hits; growth inhibition, % (concentration not given with the values);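 active = z-score under -3 and OD600 up to 0.15 on both plates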;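 note: plate controls were untreated wells for no effect and antibiotic for full effect; wells of about 80 µL received 100 nL stock; the first replicate is given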
# Sa RN4220 lethal: kills Staphylococcus aureus RN4220; 330,000 compounds, 0.33% hits; inhibition, % (no concentration beside the values); S. aureus RN4220 growth, OD600, 16 h;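 active = z-score of -3 or lower and OD600 up to 0.18 on both plates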;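 note: plate controls were untreated cells for no effect and reference antibiotic for full effect; stock transfer was 100 nL into about 80 µL; one replicate is shown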
# Mtb hypoxia rep growth: recorded beside Mtb hypoxia rep, whose call it bears; growth inhibition, %; measured here: M. tuberculosis growth (absorbance);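 0% = vehicle and 100% = reference antibiotic; read after six days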
# Starred values were filed as active, the others as inactive; ? = inconclusive; nt = not tested or not shown. Random draw from the library; 3.9% or so of the library scored in one or more.
# Values run as follows: Mtb hypoxia rep growth	Sa RN4220 lethal	Autofluor counter	ugtP null kill	BJeLR lethal	PrP UTR inh	Mtb hypoxia rep
O=C(OCCc1cc2ccccc2c(=O)o1)c1cccs1
    2	8.7	4044	10	nt	-26	8
COCc1ccc(C(=O)N(C)CC2CCCN(CCc3ccc(Cl)cc3)C2)o1 (centres undefined)
    5	0.7	5068	3	-4	-8	4
COc1cccc(/C=N/NC(=O)C(=O)N2CCCC2)c1O
    nt	nt	6997	nt	2	-32	nt
S=C(Nc1cc(Cl)cc(Cl)c1)NC1CCN(Cc2ccccc2)CC1
    4	-3.0	5411	-25	7	4	-4
COc1ccc(CNC(=O)CSC(=S)N2CCCC2)cc1
    -1	3.7	?	2	nt	-18	2
O=[N+]([O-])c1cccc(/C=C2\CCC(C=NNc3ccc4ccccc4n3)=C2N2CCOCC2)c1
    0	1.9	nt	-16	nt	nt	-12
O=C(/C=C/c1ccc(Cl)cc1)NCc1ccco1
    5	0.3	2397	4	-6	-12	11
CCOc1ccc(C(=O)O/N=C(\N)c2ccc([N+](=O)[O-])cc2)cc1OCC
    1	2.7	2589	2	-6	-6	5
CN(CC(=O)Oc1ccc(-c2nnco2)cc1)S(=O)(=O)c1ccc(F)cc1
    3	3.3	?	2	5	-14	5
Cc1ccc2c(c1)C1CN(C)CCC1N2C(=O)c1ccccc1NS(=O)(=O)c1cccc(C(F)(F)F)c1 (centres undefined)
    2	15	2045	-4	-5	-2	1
COC(=O)c1nc2n(n1)C(c1ccccc1OC)C1=C(CCCC1=O)N2 (centres undefined)
    3	1.3	2718	-1	1	-12	-5
Cc1ccccc1NC(=O)CN(C)S(=O)(=O)c1ccc2c(c1)n(C)c(=O)c(=O)n2C
    -1	3.5	4597	10	13	-22	5
Cc1ccc(-c2ccc(=O)n(CC(=O)NCc3ccco3)n2)cc1
    9	3.3	7589	-1	nt	-23	4
O=C(Cc1ccccc1F)NC1CCCc2ccccc21 (centres undefined)
    1	-0.2	3465	-4	-12	-17	-3
COc1cccc(C=NNC(=O)C(=O)NCc2ccco2)c1O
    2	6.3	nt	4	nt	nt	14
Cc1cc(NS(=O)(=O)c2ccc(NC(=O)c3cccc(OC(F)F)c3)cc2)nc(C)n1
    0	3.3	4551	6	5	-12	21
Cc1cc(C)n2nc(C(=O)NCC(=O)Nc3ccc(F)c(F)c3)nc2n1
    -1	1.1	5890	5	3	-9	-5
CC(C)NS(=O)(=O)c1ccc(NC(=O)C(C)Oc2ccc(C(=O)c3ccccc3)cc2)cc1 (centres undefined)
    15	-6.6	2044	-17	-5	-7	-3
O=C1CC(N2CCN(c3ccc(F)cc3)CC2)C(=O)N1c1ccccc1 (centres undefined)
    0	1.6	4190	8	4	-30	8
CC1CCCCN1C(=O)COC(=O)CNC(=O)c1ccc(Cl)cc1Cl (centres undefined)
    7	0.8	?	5	3	-19	-1
COc1ccc(-c2cc(-c3ccccc3)nc(N3CCCC3)n2)cc1OC
    6	0.3	9777	-17	-4	-28	7
Cc1nc2ccccn2c1CN(C)C(=O)C1CCC(=O)N(CCc2cccc(F)c2)C1 (centres undefined)
    6	-1.7	5360	11	-8	2	4
COc1ccc(COc2cc(-c3cccc(OC)c3)nc3ccc(NC(=O)c4ccc(C)cc4)cc23)cc1
    4	-13	3605	-22	-1	-18	1
O=C1NC2(CCCCC2)C(=O)N1Cc1cc(=O)n2ccsc2n1
    0	0.8	4458	4	10	-7	-2
COc1ccc(NC(=O)CCOc2ccc(C)cc2)c(OC)c1
    5	5.0	4551	11	-12	-28	9
COc1cc(NC(=O)N[C@@H](Cc2ccccc2)C(=O)O)cc(OC)c1
    nt	nt	8521	nt	-3	-26	nt
COc1ccc(S(=O)(=O)N2CCN(C(=O)C3CC(=O)N(c4ccccc4F)C3)CC2)cc1OC (centres undefined)
    62*	3.1	3875	2	nt	-9	31*
O=C(Nc1ccc(N2CCCC2)c(Cl)c1)c1ccc2c(c1)OCCO2
    16	10.0	5661	6	9	-57	-1
CC(=O)NN1C(=O)/C(=C2/Sc3ccccc3N2C)SC1=S
    -4	2.6	4206	-2	-2	-21	8
CC(=O)N1CCN(CC(=O)Nc2c(Cl)ccc(C)c2Cl)CC1
    4	-0.2	3249	7	4	-39	-1

# Laid out differently: results already given
COc1ccc(COc2cc(-c3cccc(OC)c3)nc3ccc(NC(=O)c4ccc(C)cc4)cc23)cc1
  Mtb hypoxia rep growth = 4; Sa RN4220 lethal = -13; Autofluor counter = 3605; ugtP null kill = -22; BJeLR lethal = -1; PrP UTR inh = -18; Mtb hypoxia rep = 1

O=C1NC2(CCCCC2)C(=O)N1Cc1cc(=O)n2ccsc2n1
  Mtb hypoxia rep growth = 0; Sa RN4220 lethal = 0.8; Autofluor counter = 4458; ugtP null kill = 4; BJeLR lethal = 10; PrP UTR inh = -7; Mtb hypoxia rep = -2

COc1ccc(NC(=O)CCOc2ccc(C)cc2)c(OC)c1
  Mtb hypoxia rep growth = 5; Sa RN4220 lethal = 5.0; Autofluor counter = 4551; ugtP null kill = 11; BJeLR lethal = -12; PrP UTR inh = -28; Mtb hypoxia rep = 9

COc1cc(NC(=O)N[C@@H](Cc2ccccc2)C(=O)O)cc(OC)c1
  Mtb hypoxia rep growth = nt; Sa RN4220 lethal = nt; Autofluor counter = 8521; ugtP null kill = nt; BJeLR lethal = -3; PrP UTR inh = -26; Mtb hypoxia rep = nt

# (next part)
# Values run as follows: Mtb hypoxia rep growth	Sa RN4220 lethal	Autofluor counter	ugtP null kill	BJeLR lethal	PrP UTR inh	Mtb hypoxia rep
Cc1cc(=O)n2nc(N3CCCC(C(=O)N4CCc5ccccc54)C3)sc2n1 (centres undefined)
    0	-15	2568	-3	-4	-5	-3
COc1ccccc1NS(=O)(=O)c1cccc(NC(=O)Cc2cccs2)c1
    7	-1.9	7303	-2	-4	-21	-5
CCOCCCn1cnc2c([nH]c3cc(OC)ccc32)c1=O
    13	8.7	6381	-7	1	-44	7
Cc1cccc(NC(=O)c2cc3n(n2)C(C(F)(F)F)CC(c2ccc4c(c2)OCO4)N3)c1 (centres undefined)
    8	5.2	22193*	0	-19	-1	10
C#Cc1ccc(C2C=C(C(=O)NC3CC3)OC(OCc3ccc(CO)cc3)C2)cc1 (centres undefined)
    8	4.1	nt	4	nt	nt	22
CCC(=O)c1ccc(N2CCCC2)c(F)c1
    nt	22	3495	-5	-2	-42	nt
O=C(CNCc1cccs1)Nc1ccc(N2CCCCCC2)cc1
    nt	nt	3890	nt	-4	-14	nt
CCCCc1ccc(NC(=S)NCc2cccnc2)cc1
    8	4.9	2581	1	-9	-9	8
COc1ccc(CC2CN3C(=NCC3Cc3ccccc3)N2CCNC(=O)CCC2CCCCC2)cc1 (centres undefined)
    10	-2.1	nt	4	nt	nt	-12
COc1cccc(NC(=O)NCCCSC2CCCCC2)c1
    1	3.4	21430*	-3	-1	-7	0
Cc1cc2nnc(SCC(=O)NCc3ccco3)n2c2ccccc12
    5	3.4	4239	4	23	-28	-11
Nc1nnc(N2CCCCCC2)s1
    1	3.4	9619	4	-26	-9	4
Cc1cc(C)c(NC(=O)c2cc(=O)c3ccccc3o2)c(C)c1
    3	2.4	2577	0	-2	-18	-4
C/C(CC(=O)Nc1ccc2c(c1)OCCO2)=N\NC(=O)COc1ccccc1
    nt	nt	5268	nt	-1	-15	nt
COCCn1c(C)cc(C(=O)CSc2nc3ccccc3c(=O)[nH]2)c1C
    2	5.8	16074	4	-2	-59	0
COc1ccccc1C(c1nnnn1Cc1ccco1)N1CCN(c2cccc(C)c2C)CC1 (centres undefined)
    -4	6.0	3787	11	7	12	2
COc1ccc(NC(=O)CSc2nnc(Cc3ccccc3)c(=O)n2N)cc1
    9	1.8	7851	2	5	-1	9
Cc1onc(-c2c(Cl)cccc2Cl)c1C(=O)NCc1ccccn1
    6	3.7	10814	7	19	-19	8
Cc1cccc(C)c1NC(=O)CSc1nnc(-c2ccco2)c(-c2ccco2)n1
    nt	nt	4038	nt	-8	-12	nt
CCC(=O)c1ccc(OCC(=O)Nc2ccccc2C(=O)NC2CC2)cc1
    -2	8.1	3972	0	nt	-10	4

# Some of these compounds in order of SMILES length, largest number first:
# Values run as follows: Mtb hypoxia rep growth	Sa RN4220 lethal	Autofluor counter	ugtP null kill	BJeLR lethal	PrP UTR inh	Mtb hypoxia rep
COCCn1c(C)cc(C(=O)CSc2nc3ccccc3c(=O)[nH]2)c1C
    2	5.8	16074	4	-2	-59	0
Cc1cc2nnc(SCC(=O)NCc3ccco3)n2c2ccccc12
    5	3.4	4239	4	23	-28	-11
Nc1nnc(N2CCCCCC2)s1
    1	3.4	9619	4	-26	-9	4

# (further entries)
# Values run as follows: Mtb hypoxia rep growth	Sa RN4220 lethal	Autofluor counter	ugtP null kill	BJeLR lethal	PrP UTR inh	Mtb hypoxia rep
O=C(CSCc1ccccc1)NN=Cc1ccccc1OCc1ccccc1
    -20	-1.8	nt	-4	nt	nt	-3
Nc1c(/C=C2/C=CC(=O)C(O)=C2)c(=O)nc2sc(CC(=O)N3CCCCC3)nn12
    11	9.3	5855	-11	-3	-3	-1
CCOc1cc(-c2c(C#N)c(=O)[nH]c3c2c(C)nn3-c2ccc(F)cc2)ccc1O
    5	1.2	4601	21	-5	0	-2
CCCCOC(=O)Nc1ccc2c(C)cc(=O)oc2c1
    5	0.4	10206	-5	1	-70	1
O=C(CN1C(=O)NC2(CCCc3ccccc32)C1=O)NC1CCCCC1 (centres undefined)
    -2	1.0	5006	5	-3	-16	-6
CCS(=O)(=O)N1CCCC(C(=O)NCCCOC)C1 (centres undefined)
    -3	-15	2770	-3	-5	-10	6
COCc1nnc(NC(=O)c2cccc(NC(=O)C(C)C)c2)s1
    -8	6.3	4618	5	7	-48	-18
CC1=C(C(=O)OCC2CCCO2)C(c2ccc(C)cc2)C2=C(CC(C)(C)CC2=O)N1 (centres undefined)
    8	-1.1	2515	8	-1	0	1
O=C(O)C1C2C=CC(C2)C1C(=O)NCc1ccccc1F (centres undefined)
    3	4.4	3454	4	0	-12	9
CN(c1ccccc1)S(=O)(=O)c1ccc(Cl)c(C(=O)Nc2nn[nH]n2)c1
    -5	-1.9	4343	-11	2	31	-2
COc1ccc(S(=O)(=O)N(CC(=O)Nc2ccc3c(c2)OCO3)c2ccccc2OC)cc1
    1	-10	3304	-3	9	-12	7
COc1ccccc1N=C1NC(=O)/C(=C/c2ccc(N(C)C)cc2)S1
    5	-0.8	6909	-13	33	-35	6
CC(=O)Nc1ccc(NC(=O)CSc2nnc(-c3cccs3)n2N)cc1
    7	-0.1	5237	2	2	-17	-8
O=c1[nH]c(-[n+]2ccccc2)c(C=NNC([S-])=Nc2ccccc2)s1
    12	3.9	nt	5	nt	nt	9
CC(C)C(NC(=O)c1ccc(C(C)(C)C)cc1)C(=O)OCC(=O)NC(=O)Cc1ccccc1 (centres undefined)
    3	3.4	2433	8	1	-13	11
Cc1nn(Cc2ccccc2)c2sc(C(=O)NCc3cccnc3)cc12
    23	3.1	10030	2	-3	-19	-3
Cc1c(C)c2cc(Cl)c(OCC(=O)N3C[C@H]4C[C@@H](C3)c3cccc(=O)n3C4)cc2oc1=O
    nt	2.9	5212	0	-3	-23	nt
COc1ccc(CCNC(=O)C(=O)c2cn(CC(=O)N3CCOCC3)c3ccccc23)cc1
    -5	0.1	5836	-6	1	-12	0
C=CCNc1nc(C(=O)OCC(=O)c2cccc(Br)c2)cs1
    4	3.0	3995	0	nt	-11	5
Cc1cc(N2C(=O)C(O)=C(C(=O)c3cc4ccccc4o3)C2c2cccs2)no1 (centres undefined)
    nt	nt	6623	nt	-13	-2	nt
CCOC(=O)C1(CC2CCCCO2)CCN(Cc2cn[nH]c2-c2cccc(F)c2)CC1 (centres undefined)
    3	2.9	3351	6	-8	4	13
O=c1[nH]c(-c2ccc(Cl)cc2)nc(=S)[nH]1
    14	3.5	5732	6	6	-7	4
C=CCn1c(O)c(/C=N/NC(=O)c2ccncc2)c(=O)[nH]c1=O
    8	2.8	4645	5	1	-31	12
O=C(Nc1cc(S(=O)(=O)N2CCOCC2)ccc1N1CCCC1)c1cccnc1Cl
    9	-0.9	1821	0	-9	-4	-6
O=C1CC(NNC(=O)c2ccccc2)C(=O)N1 (centres undefined)
    8	1.7	9541	7	12	-27	18
O=C(Nc1cc(S(=O)(=O)N2CCOCC2)ccc1Cl)C1CCC1
    -3	2.5	6232	-5	-3	-14	1

# Screening data (PubChem)
